Screens as filed in PubChem.
MbtI inh: MbtI salicylate synthase inhibition; P9WFX0; purified MbtI enzyme, fluorescence intensity read-out; inhibition, %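 (about 17 µg/mL by stock and volumes)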; hit rate 0.89% among 100,000;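 active = above 50% in both replicates, above 80% if mildly self-fluorescent; inactive = the rest, strongly fluorescent compounds included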;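 note: 0% = mean of negative and 100% = mean of positive controls; one replicate is shown; some compounds called inactive have numbers as strong as hits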
Target sequence (P9WFX0 whole entry, looked up): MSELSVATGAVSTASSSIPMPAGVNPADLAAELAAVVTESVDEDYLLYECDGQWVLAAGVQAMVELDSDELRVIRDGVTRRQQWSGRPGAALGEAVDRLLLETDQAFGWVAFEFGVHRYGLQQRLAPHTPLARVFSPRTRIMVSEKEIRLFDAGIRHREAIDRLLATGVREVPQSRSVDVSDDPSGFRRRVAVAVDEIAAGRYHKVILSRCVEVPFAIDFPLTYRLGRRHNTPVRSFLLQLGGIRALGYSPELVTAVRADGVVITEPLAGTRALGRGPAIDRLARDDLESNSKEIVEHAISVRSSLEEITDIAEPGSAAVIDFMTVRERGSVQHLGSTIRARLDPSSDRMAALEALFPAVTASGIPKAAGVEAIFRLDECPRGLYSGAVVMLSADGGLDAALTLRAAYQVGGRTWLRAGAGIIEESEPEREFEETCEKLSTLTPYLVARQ
Mtb MenB inh: blocks the Mycobacterium tuberculosis MenB enzyme; hit rate 0.43% among 100,000; P9WNP5; AID 540299; inhibition, %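 (about 12 µg/mL by stock and volumes)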; MenB enzyme assay, absorbance read-out; some hits fall short of the stated cut;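 active = mean of two replicates above 30%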;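 note: 0% = no compound and 100% = wells with inactive enzyme; the first replicate is given; strong numbers were not always called active; inactives centre near -10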
PV pol inh: inhibitors of poliovirus RNA polymerase binding and polymerization; P03300; poliovirus polymerase elongation, fluorescence polarization; hits give low values; % elongation, % (compound at 16.7 µg/mL); hit rate 0.66% among 150,000; in the data active = % elongation below about 90%; note: some results filed as inactive read as strong as hits
Target sequence (P03300 1749-2209 limits assumed): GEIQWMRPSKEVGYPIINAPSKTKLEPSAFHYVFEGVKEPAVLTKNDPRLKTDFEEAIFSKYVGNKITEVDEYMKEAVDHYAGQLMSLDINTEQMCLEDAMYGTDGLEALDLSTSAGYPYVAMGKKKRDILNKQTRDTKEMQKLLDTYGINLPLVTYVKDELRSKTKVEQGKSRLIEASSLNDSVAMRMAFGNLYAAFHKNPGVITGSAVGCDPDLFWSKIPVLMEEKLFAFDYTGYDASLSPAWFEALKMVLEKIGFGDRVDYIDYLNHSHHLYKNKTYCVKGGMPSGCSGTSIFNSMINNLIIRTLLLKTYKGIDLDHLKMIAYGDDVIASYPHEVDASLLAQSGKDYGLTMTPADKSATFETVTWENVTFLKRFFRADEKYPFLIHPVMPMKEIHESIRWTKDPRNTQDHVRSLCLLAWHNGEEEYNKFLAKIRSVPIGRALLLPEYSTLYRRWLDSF
PV pol inh intensity: also measured in PV pol inh; calls as there; % elongation; measured here: total intensity read-out; formula for this scale not given here;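 total fluorescence in place of polarization; lower means less elongation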
An asterisk follows results filed as active; i = inactive; . = not tested or not shown; & = joins results of further samples. Not a hit list; about 1.7% have a hit in one of these screens.

SMILES	MbtI inh	Mtb MenB inh	PV pol inh	PV pol inh intensity
Sc1nc2c(Cl)c(Cl)c(Cl)cc2o1	38	-3	96	100
CC1(C)CN=C(NCCNC2=NCC(C)(C)S2)S1	-16	-10	101	102
CC1CCCCC1NC(=O)COC(=O)c1ccc(N(C)C)cc1 (configuration not stated)	2	-26	100	93
CC1(C(=O)O)NC(c2cc(Br)ccc2O)C2C(=O)N(c3ccccc3)C(=O)C21 (configuration not stated)	.	-43	109	117
CCN(CC)S(=O)(=O)c1cccc(C(=O)Nc2ccc(I)cc2)c1	-8	-19	101	105
Cc1ccc(CNCC(C)O)s1 (configuration not stated)	-8	-26	104	102
OC(c1ccccc1)C(F)(F)C1(F)OC(F)(F)C(F)(F)C1(F)F (configuration not stated)	-9	-11	101	99
Cc1cc(C(=O)Cn2cnc3sccc3c2=O)c(C)n1-c1ccc2c(c1)OCO2	7	-4	100	100
O=C1COc2ccccc2N1Cc1ccccc1Cl	-6	1	100	98
COc1cccc(C(Nc2ccccn2)c2c(C)[nH]c3ccccc23)c1 (configuration not stated)	56	-15	103	105
COc1ccc(O)c(C(=O)c2cnn(S(=O)(=O)c3ccc(C)cc3)c2)c1	30	-39	101	107
COc1ccc(COCC(O)CNC2CCC(C)CC2)cc1 (configuration not stated)	-2	-8	104	113
CC(Sc1ccc2nnc(-c3cccnc3)n2n1)C(=O)O (configuration not stated)	42	-15	100	104
COc1ccccc1NCc1ccccc1Oc1ccc(S(=O)(=O)N2CCCC2)cn1	-4	-26	102	102
Nc1nonc1C(=O)N1CCCC1	10	46*	104	103
N#CCSc1cccc2cccnc12	88	-28	101	100
COC(=O)c1cc(CN2c3cccc4cccc(c34)S2(=O)=O)oc1C	49	-28	99	104
COc1ccccc1NC(=O)COc1ccc2oc3c(c2c1)CCCC3	-5	-17	101	102
COc1cc2c(cc1NC(=O)COCC(=O)O)oc1ccccc12	-9	-3	103	101
COc1ncnc(OC)c1C	-16	2	107	108
C(=N\NC1=NCCCCC1)/c1ccc2c(c1)OCO2	31	-14	99	108
CC1(C)Cc2cccc(OCC(=O)NC3CC3)c2O1	15	8	96	101
CCN1CCN(C(=O)CCSc2ccc(C)cc2)CC1	-3	-17	101	100
Nc1nc(N)nc(CN2C(=O)NC(c3ccccc3)(c3ccccc3)C2=O)n1	-5	-13	96	101
COc1ccc(C2C(=O)c3ccccc3C2=O)c(OC)c1	-4	-20	100	99
(continued)
SMILES	MbtI inh	Mtb MenB inh	PV pol inh	PV pol inh intensity
O=C(COc1ccc(Br)cc1)NC1CC1	-12	-8	103	100
O=C(COc1ccc(Cl)cc1)Nc1nonc1NC(=O)COc1ccc(Cl)cc1	7	-16	100	101
O=C(Nc1nc2ccccc2s1)C1CCCO1 (configuration not stated)	11	-2	101	100
Cc1ccc(S(=O)(=O)Nc2nc3c(s2)C(=O)CC(C)(C)C3)cc1	18	-30	103	108
COc1ccc(N2CC(NC(=O)N3C(C)CCCC3C)CC2=O)cc1 (configuration not stated)	-8	4	98	105
c1ccc(CCCc2nn3c(-c4cccs4)nnc3s2)cc1	65	-67	105	102
COc1cc(C)c(N)cc1OC	-3	.	104	103
CC1=CC(=C2C(=O)NC(=S)NC2=O)C=C(C(F)(F)F)O1	24	-74	103	102
CS(=O)(=O)c1nc2ccccc2n1Cc1ccccc1F	.	-11	95	100
CCN(CC)S(=O)(=O)c1cccc(-c2nnc(SCC(=O)Nc3cc(C)ccc3C)o2)c1	-10	-9	98	94
COc1cc(S(=O)(=O)N2CCN=C2c2ccccc2)ccc1F	-10	-10	101	104
Nc1nc(-c2ccc(Cl)cc2)c(N=Nc2ccc(S(=O)(=O)N3CCOCC3)cc2)s1	-12	-1	95	81
Nc1c(C(=O)C2CC2)oc2ccccc12	88	-23	103	102
S=C(NC1CCCCC1)N1CCn2c(nc3ccccc32)C1	10	3	98	102
CC(C)CNc1ncnc2onc(-c3cccc(Cl)c3)c12	-1	0	102	104
Cc1nc2c([nH]c3ccc(Br)cc32)s1	-1	6	104	104
COc1ccc2c(c1)CCCN2Cn1nc(COc2ccccc2)n(C)c1=S	.	5	97	105
COc1cc(OC)c(OC)cc1CN(C)C1CCN(C)CC1	-11	-17	102	101
COc1ccccc1NC(=O)C1OCCc2ccccc21 (configuration not stated)	-14	7	101	102
CCc1sc(C(=O)O)cc1C	6	-14	101	104
CCOC(=O)c1cnc2c(c(C)nn2C)c1Sc1nnc(SC)s1	6	-1	100	104
Cc1nc2[nH]c(=S)[nH]c2cc1Br	35	-4	102	102
Cc1ccc2cc(CN(CCO)C(=O)NCc3ccccc3)c(=O)[nH]c2c1	-44	-6	103	101
CN(C)S(=O)(=O)c1ccc(SCC(=O)N2CCNC2=O)nc1	7	1	104	107
O=C(CSC(=O)c1ccccc1)Nc1ccc(C(F)(F)F)cc1	42	.	100	104
(listing goes on)
SMILES	MbtI inh	Mtb MenB inh	PV pol inh	PV pol inh intensity
O=C(COC(=O)C1CCCCC1)Nc1cccc(F)c1	-2	.	102	105
O=c1cc(O)c2sc(SCCN3CCOCC3)nc2[nH]1	7	-218	102	102
Cc1ccc(CN2C(=O)CSc3ccc(NC(=O)NC4CCC(C)CC4)cc32)cc1 (configuration not stated)	-8	-6	100	101
Cn1[nH]c(Nc2ccccc2Cl)c(N=Nc2ccccc2)c1=O	18	-17	105	103
C/C(=N\NC(=O)c1ccoc1C)c1cccc2ccccc12	-2	-5	103	103
CCN(CC(=O)NCc1ccc(F)cc1)C(=O)c1ccc(C)o1	11	10	96	101
C=CCn1c(=O)[nH]c(=O)c2c(N)c(C(=O)c3ccc(OC)cc3)sc21	-8	1	102	96
Cc1c(Cl)c(-c2n[nH]c(=S)n2Cc2ccco2)nn1C	26	-22	104	102
CSc1scc2c1-c1nc(SCC(=O)C(C)(C)C)ncc1CC2	22	-24	106	110
Cc1nc2nc(-c3ccccc3)cn2nc1C	-16	.	101	103
O=C(NC1CC1)c1cc2c(ccc3ccccc32)oc1=O	-63	-50	101	104
N#C/C(=C\Nc1ccccn1)C(=O)C1CC1	3	1	104	100
CC1CCN(C(=O)c2cc3ccccc3o2)CC1	.	-18	100	95
COc1cccc2c1cc([N+](=O)[O-])c1c(C(=O)O)cc3c(c12)OCO3	-13	-5	101&98	101&100
CCCC(C)C(=O)Nc1nc2ccccc2s1 (configuration not stated)	17	-15	104	101
COc1cc2c(cc1N=Cc1cccnc1)oc1ccccc12	90	.	101	98
CC1CC(=O)Nc2ccccc2N1S(=O)(=O)c1cccc2nonc12 (configuration not stated)	-6	-10	104	105
O=S(=O)(/C=C/c1ccccc1)N1CCN(c2ncc(C(F)(F)F)cc2Cl)CC1	-3	8	103	106
Cc1nc(/N=C(\N)NC(=O)NC2CCCCC2)nc2ccccc12	9	-7	103	104
CN(C(=O)CSc1nc2ccccc2n1CCC#N)c1ccccc1	2	-16	96	99
CCCc1nnc(N)s1	2	.	104	101
N#C/C(=C/c1cccc2ccccc12)c1ccccc1	.	-37	106	109
NC(=O)CN1C(=O)/C(=c2\sc3nc(-c4cccs4)nn3c2=O)c2ccccc21	-1	0	104	102
Nc1cc(=O)n2c(n1)SCC(O)C2 (configuration not stated)	-2	-14	105	101
Cc1ccc(C=Nc2ccc(C(F)(F)F)cc2)s1	-6	.	103	108
Continuation:
SMILES	MbtI inh	Mtb MenB inh	PV pol inh	PV pol inh intensity
O=C1Cc2cc(C(=O)CSc3nnc(CN4CCCC4=O)o3)ccc2N1	2	-7	97	101
COc1cc(N(C(=O)Cn2nnc3ccccc32)C(C(=O)NCC2CCCO2)c2cccn2C)ccc1-n1cnnn1 (configuration not stated)	0	36	102	101
Oc1oc(-c2cccc3ccccc23)nc1C=NC1CCCCC1	8	-17	71	190
NC(=O)c1ccsc1NC(=O)C1CC2C=CC1C2 (configuration not stated)	-8	-23	107	106
N#C/C(=C/c1ccc(-c2cccc(C(F)(F)F)c2)o1)c1ccc(C(=O)O)cc1	-7	-19	99	102
O=C1NCCN1C(=O)NC1CCCCC1	-15	-23	102	103
O=C1NC(c2cccs2)Nc2sc3c(c21)CCCC3 (configuration not stated)	6	6	97	98
O=C(COC(=O)c1ccc(S(=O)(=O)C(F)F)cc1)c1ccc(F)c(F)c1	13	-24	104	107
NC(=O)C1CCCN1 (configuration not stated)	-6	-22	104	103
CSc1ccc(/C=N/NC=O)cc1	-8	7	112	102
CCCOC(=O)c1ccc(NC(=O)c2ccc(C)c(Br)c2)cc1	.	-5	99	107
CC(NC(=O)c1ccccc1NC(=O)c1ccccc1)C(=O)NCc1ccco1 (configuration not stated)	0	-1	103	102
Cc1occc(=O)c1OCc1ccc(Cl)cc1	-6	-20	102	104
CC(=O)Nc1ccc(S(=O)(=O)Nc2nc3ccccc3nc2Nc2ccc(C(=O)O)c(O)c2)cc1	2	-30	96	100
Cc1cccc(-n2c(=S)n(CN3CCCC3)c3ccccc32)c1	28	-42	96	101
COc1cc2c(cc1/C=C/C(=O)O)OC(C)C2 (configuration not stated)	97	-9	103	103
CCCCn1c(Cc2ccccc2)nnc1SCC(=O)NC	-5	11	102	103
CCOC(=O)c1cc(-c2ccc(Cl)s2)[nH]n1	-11	-18	105	93
CCc1n[n+]2c(C)cc(C)nc2s1	-8	.	101	103
O=C(O)c1cccc(=S)[nH]1	-6	1	106	105
CC1(C)CC(CC(=O)N2CCOCC2)(c2ccccc2)CCO1 (configuration not stated)	-10	-13	102	105
Cc1ccc(Cl)c(NC(=O)Cn2c(N)nc(C#N)c2C#N)c1	0	-50	92	110
COc1ccc(NC(=O)C2CCCCN2S(=O)(=O)c2ccc(C(C)(C)C)cc2)cc1 (configuration not stated)	12	-16	102	100
COC(=O)c1ccccc1NC(=O)COCc1cc(-c2ccc3c(c2)OCO3)on1	21	-12	102	102
c1nc(N2CCOCC2)nc(N2CCOCC2)n1	.	-3	107	111
The list continues:
SMILES	MbtI inh	Mtb MenB inh	PV pol inh	PV pol inh intensity
CN(C)S(=O)(=O)N1CCC(c2nc3ccccc3[nH]2)CC1	-4	-15	101	111
CC(C)(C)c1cc(/N=C/c2c(O)[nH]c(=O)[nH]c2=O)n(-c2ccccc2)n1	78	-16	101	100
O=c1nc(-c2ccccc2)c2cc(Br)ccc2[nH]1	2	-24	103	101
c1ccc2[nH]c(CN3CCCCCC3)nc2c1	.	-4	112	110
O=C(CC1C(=O)Sc2[nH]c(=O)sc21)c1ccc(F)cc1 (configuration not stated)	85*	59*	55	150
c1ccc2[nH]c(SCCN3CCOCC3)nc2c1	22	-12	99	96
CSc1ccc([C@H]2[C@H](C(=O)O)CC(=O)N2Cc2ccccc2)cc1	-4	-28	104	102
Cc1ccc(N2C(/N=C3\N=c4[nH]c5ccccc5c4=N3)=NC23C(=O)Nc2ccccc23)cc1C (configuration not stated)	-10	-4	102	115
O=C(NCCC1=CCCCC1)C1CCCCC1	9	-1	.	.
COc1cc(/C=C/C(=O)O)cc(S(=O)(=O)Nc2ccc3[nH]c(=O)[nH]c3c2)c1OC	-4	8	107	104
Cc1nnc(SCC(=O)Nc2ccc(Cl)cc2Cl)n1C	-13	.	101	107
Cc1cc(C)c(C)c(OCC(=O)NCC2CCCO2)c1 (configuration not stated)	.	-8	101	107
COC(=O)CN1C=C(C(=O)OC)C(c2ccc(Cl)cc2)C(C(=O)OC)=C1	107	-11	104	103
O=S(=O)(Nc1ccccc1)c1ccc2c(c1)OCCO2	-6	-37	101	102
CC(=O)Nc1ccc(/C=N/N2C(=O)c3ccccc3C2=O)cc1	-16	-18	104	108
CCOc1ccc(C(=O)Nc2cccc(NC(=O)c3ccccc3)c2)cc1Br	5	-43	103	104
CCC(=O)NC(C)C(c1cccs1)N1CCN(c2ccccc2)CC1 (configuration not stated)	-14	-19	105	106
COc1cc(CNC(=O)c2ccc(N(C)C)cc2)cc(OC)c1OC	-4	-10	102	111
CC(C)C(=O)Nc1ccc2oc(-c3cncc(Br)c3)nc2c1	-43	8	107	100
O=C(CN1CCCCC1)N(c1ccccn1)c1ccccn1	10	9	105	101
O=C(Cn1nc(C(F)(F)F)c2c1CCC2)NC1CCCC1	-2	16	100	101
C=CCOc1cccc(CNc2cccc(C(=O)O)c2)c1	i	-3	100	100
CN=CC1=C(O)c2ccccc2C1=O	2	-12	102	106
Cc1cccc(C(=O)OCCSc2nc(C)c3cc(C)c(C)cc3n2)c1	-1	-17	100	105
O=C(Nc1noc2ccccc12)c1ccccc1	8	7	106	105
